# Source: PubChem BioAssay (National Center for Advancing Translational Sciences (NCATS))
# ClpP mod: qHTS Assay for Activators of ClpP; Potency, µM (highest dose often 57.5 µM), for the others: top-dose activity change, negative = active; ATP-dependent Clp protease proteolytic subunit (Bacillus subtilis (strain 168)), P80244; actives 1.9% (n = 340,000); AID 651965, 2013; purified B. subtilis ClpP, FRET peptide cleavage, 20 min; active = well fitted falling curve with a large enough effect; inconclusive = small, poorly fitted or top-dose-only effect; inactive = no such curve, though single readings can be large or run the other way; note: potency is the fitted concentration of half-maximal effect; the source files actives as falling curves though it sought activators and does not explain the sign; nearly all actives have a fitted effect of over 65% in size; many hits overshoot -100%
# Target sequence (P80244 whole entry, looked up): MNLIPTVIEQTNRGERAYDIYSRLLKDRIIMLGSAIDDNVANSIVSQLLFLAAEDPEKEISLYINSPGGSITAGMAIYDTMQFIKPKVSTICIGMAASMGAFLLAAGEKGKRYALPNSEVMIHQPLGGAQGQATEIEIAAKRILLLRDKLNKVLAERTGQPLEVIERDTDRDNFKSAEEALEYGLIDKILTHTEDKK
#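 Buffer: 100 mM Tris/HCl pH8, 100 mM KCl, 0.05% low protease BSA, 2.5% glycerol, 0.01% Tween-20. ClpP 10 microg/mL final; 20 min RT; delta FRET normalized to ADEP and DMSO controls.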
# TRPML1 blocker: human mucolipin-1 channel inhibition; Q9GZU1; TRPML1-inducible cells, Ca2+ dye fluorescence, FDSS; hits give low values; inhibition of EC80 agonist-evoked calcium signal; activity change, negative = inhibition, % (test concentration not listed); actives 0.02% (n = 390,000); AID 624415; in the data active means activity change below about -50%; inconclusive means about -30% to -50%; inactive means above about -30%;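 note: stimulus is agonist 54-4 at its EC80 concentration; % is set by controls: 0 for no effect and ±100 for the full control effect; compound concentration not given in the record; the text of the record puts the active cut at -80%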
#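 Calcium fluorescence in TRPML1-DL cells induced overnight with Tet: a 110 s read after compound pin addition, then a 110 s antagonist read after challenge with 54-4 at 4 uM final (EC80).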
# TRPV1 potentiator: human TRPV1 potentiation. TRPV1-expressing cells, Fluo-8 calcium influx, capsaicin EC20 potentiation; host cell line not named in the record; control for the full effect not named in the record. potentiation, % at 8.33 µM. actives 0.02% (n = 320,000). AID 540277; active means potentiation above 80%; inconclusive means 30% to 80%; inactive means below 30%; note: 0% is about no effect
# Target sequence (Q8NER1 whole entry, looked up): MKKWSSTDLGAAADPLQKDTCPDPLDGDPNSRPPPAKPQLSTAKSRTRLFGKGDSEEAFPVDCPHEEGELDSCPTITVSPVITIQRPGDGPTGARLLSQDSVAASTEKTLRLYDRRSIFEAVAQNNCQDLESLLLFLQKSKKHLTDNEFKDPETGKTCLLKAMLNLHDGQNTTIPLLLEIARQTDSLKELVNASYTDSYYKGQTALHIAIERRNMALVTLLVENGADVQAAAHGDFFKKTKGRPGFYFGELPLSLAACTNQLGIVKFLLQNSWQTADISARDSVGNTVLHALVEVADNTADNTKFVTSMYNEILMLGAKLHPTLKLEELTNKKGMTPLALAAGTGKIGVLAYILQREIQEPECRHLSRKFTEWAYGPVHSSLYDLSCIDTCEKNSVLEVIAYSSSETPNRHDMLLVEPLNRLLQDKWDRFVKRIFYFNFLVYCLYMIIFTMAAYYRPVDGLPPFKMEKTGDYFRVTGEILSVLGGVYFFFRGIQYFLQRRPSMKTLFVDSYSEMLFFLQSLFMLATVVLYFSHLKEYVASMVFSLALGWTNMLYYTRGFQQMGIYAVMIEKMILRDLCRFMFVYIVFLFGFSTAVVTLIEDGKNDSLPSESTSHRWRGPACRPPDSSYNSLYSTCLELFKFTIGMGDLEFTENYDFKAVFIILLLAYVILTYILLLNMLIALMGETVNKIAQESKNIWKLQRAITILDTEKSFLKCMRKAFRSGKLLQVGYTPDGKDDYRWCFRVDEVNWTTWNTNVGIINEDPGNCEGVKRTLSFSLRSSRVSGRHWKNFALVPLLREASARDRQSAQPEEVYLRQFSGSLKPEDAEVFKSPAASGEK
#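 Cells expressing TRPV1 were dye-loaded with Fluo-8 and read kinetically: 10 s baseline, 3 min after compound (agonist portion), then 2 min after EC20 capsaicin (allosteric enhancer portion). Calcium-bound dye fluorescence at 480/520 nm.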
# Sfp inh: blocks B. subtilis Sfp PPTase activity | Q9F4F7 | Biochemical Sfp PPTase activity, qHTS | Potency, µM, without a hit: max response, negative = inhibition, most hits filed as inhibitors | actives 3.5% (n = 310,000) | AID 1490; active = well fitted inhibition curve with a large enough effect; inconclusive = small, poorly fitted or top-dose-only effect, or another doubt; inactive = no such curve, though single readings can be large or run the other way;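 note: the enzyme is Sfp with the accession as filed and its product quenches rhodamine fluorescence; potency is the fitted concentration of half-maximal effect; 0% = enzyme reaction without inhibitor and -100% = no enzyme wells; top concentration of the series not given in the record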
#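 Step 1, compound plus 15 nM Sfp-PPTase, 15 min, room temperature. Step 2, add rhodamine-CoA (5 uM) and BHQ-2-YbbR (12.5 uM). Step 3, read 525/598 nm fluorescence at 0 and 30 min.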
# gsp ag: agonists of gsp mutant (McCune-Albright syndrome); gsp mutant cells, cAMP HTRF, 30 min; control for the full effect not named in the record; Potency, µM (top dose mostly 76.9 µM), without a hit: top-dose activation (cAMP increase), actives largely listed as activators; actives 0.13% (n = 340,000); AID 624287; active = well fitted activation curve with a large enough effect; inconclusive = small, poorly fitted or top-dose-only effect, or another doubt; inactive = no such curve, though single readings can be large or run the other way; cell line not stated here;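 note: phosphodiesterase inhibitor Ro 20-1724 added with compounds to block cAMP breakdown; potency is the fitted concentration of half-maximal effect; nearly all actives have a fitted effect of over 60% in size; about a fifth of the inactives were tested at one dose only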
#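 Cells stably selected in G418 were plated at 2000/well, grown 16-24 hr, then given compounds in DMSO with the PDE inhibitor […] (300 uM solution added) for 30 min at 37C; cAMP was read by HTRF.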
# gsp antag: antagonists of gsp mutant (McCune-Albright syndrome). gsp-mutant cells, cAMP HTRF, 30 min; control for the full effect not named in the record. Potency, µM (doses to about 76.9 µM), inactives show top-dose activity change, negative = inhibition, actives largely listed as inhibitors. actives 0.4% (n = 340,000); active = falling curve of any shape with a large fitted effect; inconclusive = falling curve, mostly with a smaller effect; inactive = flat or rising curve; cell line not stated here;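 note: intracellular cAMP measured with PDE inhibitor Ro 20-1724 present during compound exposure; potency is the fitted concentration of half-maximal effect; % is set by controls: 0 for no effect and ±100 for the full control effect; nearly all actives have a fitted effect of over 65% in size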
#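 Cells in G418 medium, seeded 16-24 h, 37C; buffer exchange to DPBS + 1 mM CaCl2, 0.5 mM MgCl2, 0.05% BSA; cpds in DMSO + […] (300 uM stock), 30 min 37C; HTRF cAMP detection.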
# Menin MLL FP FL: inhibitors of human menin-MLL interaction, wild-type MLL peptide; Fluorescence polarization, fluorescein-MLL peptide displacement from menin; FP activity change, % at 61.4 µM; 290,000 tested, under 10 active; inconclusive = falling polarisation curve, or a change in total fluorescence; inactive = total fluorescence flat and polarisation flat or rising; no compound was filed as active; the % refers to the polarisation; negative = inhibition;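 note: % of control where 0% means no effect; inhibitors lower the polarisation; unlabelled MLL peptide was the positive control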
# * = called active by the depositor; ? = inconclusive; . = no result given; & = joins results of further samples; [ ] = dose if it differs, or a comment.
SMILES,ClpP mod,TRPML1 blocker,TRPV1 potentiator,Sfp inh,gsp ag,gsp antag,Menin MLL FP FL
COc1ccccc1NS(=O)(=O)c1cc(N)ccc1N1CCCC1,0.3%,-10,.,.,-9%[15.4 µM],-5%,.
c1csc(-c2nn[nH]n2)c1,-4.1%,-10,25,15%,-7%,6%,8.4
c1ccc(C(c2ccccc2)N2CCN(Cc3nnnn3C3CCCC3)CC2)cc1,4.8%,-3,-17,-1%,4%,-17%,-0.1
O=C(NCc1ccco1)c1nnc(Cc2ccc(F)cc2)o1,0.2%,14,-19,-4%,-12%,-7%,-1.9
CCCNC(=O)OCC12CC3CC(CC(C3)C1)C2,1.8%,78,-1,-2%,-47%[inhibitor],-4%,-0.6
O=[N+]([O-])c1ccc(S(=O)(=O)Nc2cccc(-c3ccc(N4CCOCC4)nn3)c2)cc1,-2.8%,6,1,.,13%,-19%,.
COc1cc(NS(=O)(=O)c2cn(C)cn2)cc(OC)c1,2.8%,-1,13,26%,15%,7%,.
COC(=O)c1nnn(-c2nonc2N)c1CSc1ccc(Cl)cc1,-1.6%,-4,-6,15%,24%,3%,5.0
O=C1N=c2ccc([N+](=O)[O-])cc2=C1c1sc(=O)[nH]c1O,.,-17,?,-26%,5%,-15%,-1.3
O=C(O)CC/C(=N\Nc1ccc(S(=O)(=O)N2CCCC2)cc1[N+](=O)[O-])c1cccs1,-3.1%,9,9,1%,-1%,-29%,3.7
O=C(NC1CCCC1)c1ccccc1OCc1ccccc1,-2.4%,-3,-19,-6%,0%[15.4 µM],-14%,-0.8
O=C(O)C1C2C=CC(C2)C1C(=O)N1CCOCC1 (centres undefined),-0.7%,0,14,-2%,14%,2%,6.9
Cc1noc(C)c1COC(=O)C1CCN(S(=O)(=O)c2ccc(F)cc2)CC1,2.1%,-15,-4,.,3%,3%,.
COC(=O)c1ccc(C(=O)OC)c(NC(=O)CSCc2ccccc2Br)c1,-8.0%,1,-5,11%,9%,2%,3.0
Cc1n[nH]c(C)c1Sc1ccccc1N=Cc1cc(Cl)cc([N+](=O)[O-])c1O,-1.5%,48,12,14%,4%[15.4 µM],-6%,?
Cc1cc2cc3c(C)cc(=O)oc3c(C)c2o1,-20%,10,8,9%&-12%&11%,1%,4%,-2.0
CCC(=O)N(CCc1ccc(OC)c(OC)c1)Cc1cc2ccc(C)cc2n2nnnc12,.,-8,2,16%,-5%[15.4 µM],7%,7.3
COc1ccc(NC(=O)CSc2n[nH]c(C(C)C)n2)c([N+](=O)[O-])c1,.,-18,-8,15%,-16%[15.4 µM],-10%,-0.7
COCCN1Cc2cccc(C(=O)Nc3ccccc3OC)c2C1=O,0.3%,-5,-8,17%,0%,6%,1.0
COc1ccc(CN2CCC(Cc3ccccc3)CC2)cc1OC,0.9%,-9,-8,-2%,4%,19%,-1.7
Cn1nc(C(=O)Nc2nc3ccccc3[nH]2)c2ccccc2c1=O,-1.2%,-5,0,10%,8%,6%,3.1
CCC1CCCCN1Cc1nc2c(c(=O)n(C)c(=O)n2C)n1CCCc1ccccc1 (centres undefined),1.5%,-2,-16,1%,?,-4%,0.8
CN(C)S(=O)(=O)c1ccc(C(=O)NC2CCCc3ccccc32)cc1 (centres undefined),.,8,-13,-2%,-1%[15.4 µM],11%,3.0
COc1ccc(-c2nc(SCC(=O)NCc3ccco3)c(-c3ccccc3)[nH]2)cc1OC,?,4,-9,?,11%,-11%,0.2
Cc1ccc(CSC2=Nc3ccccc3C3=NC(CCC(=O)NCc4ccco4)C(=O)N23)cc1 (centres undefined),?,45,8,?,-28%,0%,2.0
# Following part:
SMILES,ClpP mod,TRPML1 blocker,TRPV1 potentiator,Sfp inh,gsp ag,gsp antag,Menin MLL FP FL
CCCCCCC(=O)N(O)C1CC(=O)N(Cc2ccccc2)C1=O (centres undefined),71%,5,-16,50µM*,?,4%,1.6
COc1ccccc1-n1cnnc1SCc1csc(-c2ccccc2)n1,-1.5%,-15,19,-5%,-20%,-1%,1.5
COC(=O)c1ccc(/C=N/Nc2nc(C)c(C)s2)cc1,.,4,.,0%,-6%[15.4 µM],-1%,?
Cc1cc2sc3ccc(C#CC4(O)CCCCC4)cc3c(=O)c2cc1C,-7.5%,5,.,.,.,-2%,.
COc1ccc(-n2sc3ccc(F)cc3c2=O)cc1,-1.5%,-3,-22,.,.,?,.
Cc1ccc(S(=O)(=O)N(Cc2cccc(C)c2)C(=O)N2CCN(C)CC2)cc1,-2.3%,-2,25,.,-1%,6%,.
O=C(O)COc1ccccc1/C=N/NC(=O)CSc1nc2ccccc2n1Cc1ccccc1,.,-11,-1,13%,-13%[15.4 µM],-1%,0.3
CC(Sc1nnc(-c2ccco2)n1N)C(=O)NCc1ccc2c(c1)OCO2 (centres undefined),?,1,15,.,-15%,15%,.
COc1cc(CNC2CCCCC2OC)cc(OC)c1 (centres undefined),1.7%,31,4,2%,-21%,10%,2.0
Cc1ccccc1OCC(=O)N/N=C/c1ccc(N(C)C)cc1,.,2,?,14%,-6%,-7%,-2.4
Cn1cnnc1SC1CCCCC1NS(=O)(=O)c1ccc(Cl)cc1 (centres undefined),1.2%,4,9,10%,1%,3%,-2.5
CC1=C(C(=O)OCc2ccc([N+](=O)[O-])cc2)N2C(=O)C(NC(=O)Cc3ccccc3)C2SC1 (centres undefined),1.2%,1,3,7%,0%,9%,0.4
COc1cc(C2Nc3ccccc3C(=O)N2c2ccccc2)ccc1O (centres undefined),?,-6,1,-7%,-58%[inhibitor],5%,6.0
COc1ccc2c(c1)[nH]c1c(N3CCN(Cc4ccc5c(c4)OCO5)CC3)ncnc12,?,-1,-14,-7%,-68%[inhibitor],40µM*,0.7
O=C(Nc1ccccc1)/C(=C\c1ccc(F)cc1)NC(=O)c1ccco1,.,-2,1,21%,9%,-8%,-4.5
COC1CCN(C(=O)c2cc(COc3ccc(-n4cncn4)cc3)on2)CC1,-0.1%,35,1,8%,-14%,-3%,.
Cn1nc(C(=O)NCC(c2cccs2)N2CCOCC2)c2ccccc2c1=O (centres undefined),.,8,.,.,5%,-5%,.
CCOC(=O)CSc1nc(N)nc(C)c1Br,-1.1%,24,-16,-14%,0%,3%,-1.7
COc1ccc(OC)c(NC(=O)C2=C(C)NC(=O)NC2c2cccs2)c1 (centres undefined),.,-10,-11,2%,-9%[15.4 µM],-3%,-0.1
COc1ccc(NC(=S)NCCCN2CCOCC2)cc1,0.3%,7,-2,6%,-2%[15.4 µM],16%,5.7
O=C(CCc1nnc2ccc(NCc3ccccc3)nn12)NC1CCCC1,-9.7%,-11,0,15%,?,7%,.
O=C(O)C1C2C=CC(C2)C1C(=O)N1CCN(C/C=C/c2ccccc2)CC1 (centres undefined),-1.7%,11,-2,?,6%,2%,0.7
C[C@H](/C=C/[C@@]1(O)[C@H](C)C[C@H](O)CC1(C)C)O[C@@H]1O[C@H](CO)[C@@H](O)[C@H](O)[C@H]1O,0.3%,-12,-31,.,-5%,11%,.
O=S(=O)(c1cccc2nonc12)N1CCCCCC1,1.9%,-4,-5,8%,16%,-10%,-2.4
CCN(CC(=O)Nc1ccc(NC(C)=O)cc1)CC(=O)Nc1ccccc1C(=O)c1ccccc1,-1.1%,-13,8,1%,-2%,-21%,-0.7

# Entries of single compounds, quoted from the list. Order of values: ClpP mod | TRPML1 blocker | TRPV1 potentiator | Sfp inh | gsp ag | gsp antag | Menin MLL FP FL
# COc1ccc(NC(=S)NCCCN2CCOCC2)cc1 in the list: 0.3% | 7 | -2 | 6% | -2%[15.4 µM] | 16% | 5.7
# Cc1ccccc1OCC(=O)N/N=C/c1ccc(N(C)C)cc1 in the list: . | 2 | ? | 14% | -6% | -7% | -2.4

# (cont.)
SMILES,ClpP mod,TRPML1 blocker,TRPV1 potentiator,Sfp inh,gsp ag,gsp antag,Menin MLL FP FL
O=c1c2cc(-c3ccccc3)sc2nc2n1N=C(c1ccccc1)CS2,.,-6,12,-10%,?,-14%,-4.4
Cc1ccc(C)c(-c2nnc(NC(=O)CCS(=O)(=O)c3ccc(F)cc3)o2)c1,-3.1%,-6,-1,.,-3%[15.4 µM],-3%,.
O=C(NNC(=O)c1ccc2nc[nH]c2c1)c1ccccc1,-0.5%,5,-3,.,-16%,12%,.
OCCNc1nc2nonc2nc1NCCO,-0.5%,12,9,12%,?,10%,1.1
CCc1nc(SCC(=O)NCCc2ccc(OC)c(OC)c2)c2c(=O)n(C)c(=O)n(C)c2n1,1.2%,2,2,14%,-32%[inhibitor],6%,3.9
CC(C)(C)[C@H]1C=C(C(=O)N2CCN(Cc3ccc4c(c3)OCO4)CC2)O[C@@H](OCCCCO)C1,1.0%,-12,16,-13%,.,-5%,-2.4
Cc1cc(C)c2nc(-c3ccccn3)cc(C(=O)NCCc3ccc(S(N)(=O)=O)cc3)c2c1,.,-5,-3,28µM*,25%,-16%,3.1
CCC(CC)NC(=O)COC(=O)c1ccc2c(c1)C(=O)N(Cc1ccco1)C2=O,.,4,5,22%,-1%[15.4 µM],-12%,-12
COCCCNC(=O)COc1ccc(S(=O)(=O)NCc2ccccc2)cc1Cl,-1.2%,-19,2,7%,-1%,-6%,-0.4
COc1ccc(-c2c(-c3cc(OC)cc(OC)c3)n(C)c3ccc(-c4cnc(OC)nc4)cc23)cc1,?,16,.,.,7%,8%,.
COC(=O)c1ccc(OC)c(CSc2nnc(COc3ccc(Cl)cc3)o2)c1,-0.6%,4,21,4%,-4%,-13%,1.5
CN=c1c([N+](=O)[O-])nn(-c2ccc3c(c2)OCCO3)n1O,-2.9%,.,15,9%,26%,12%,2.7
COc1ccc(-c2nc(CS(=O)CC(=O)NC3CCCC3)c(C)o2)cc1 (centres undefined),-17%,-10,0,13%,23%,2%,5.1
COCCCNC(=O)Cn1nc(-c2ccccc2OC)ccc1=O,1.2%,-6,-10,16%,-4%,3%,5.1
CCC(=O)NC(=S)Nc1ccc(-c2nc3ccccc3s2)cc1,25%,23,-1,13%,9%,5%,2.5
CC(C)C(=O)N=C1NC(=O)CS1,.,1,6,9%,-1%[15.4 µM],9%,2.0
